Compound activity as filed in PubChem.
ClpP mod – qHTS Assay for Activators of ClpP; Potency, µM (series often up to 57.5 µM), for the others: at the top dose activity change, negative = active; ATP-dependent Clp protease proteolytic subunit (Bacillus subtilis (strain 168)), P80244; actives 1.9% (n = 340,000); purified B. subtilis ClpP, FRET peptide cleavage, 20 min; active = well fitted falling curve with a large enough effect; inconclusive = small, poorly fitted or top-dose-only effect; inactive = no such curve, though single readings can be large or run the other way; note: potency is the fitted concentration of half-maximal effect; the source files actives as falling curves though it sought activators and does not explain the sign; nearly all actives have a fitted effect of over 65% in size; many hits overshoot -100%
Target sequence (P80244 whole entry, looked up): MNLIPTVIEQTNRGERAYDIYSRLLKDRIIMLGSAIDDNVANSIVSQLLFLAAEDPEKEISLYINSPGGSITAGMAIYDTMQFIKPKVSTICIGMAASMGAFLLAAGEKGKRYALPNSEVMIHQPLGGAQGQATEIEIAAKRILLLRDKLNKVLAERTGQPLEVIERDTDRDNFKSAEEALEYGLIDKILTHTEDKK
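Buffer: 100 mM Tris/HCl pH8, 100 mM KCl, 0.05% low protease BSA, 2.5% glycerol, 0.01% Tween-20. ClpP 10 microg/mL final; 20 min RT; delta FRET normalized to ADEP and DMSO controls.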
gsp antag – antagonizes gsp, the McCune-Albright syndrome mutation | gsp-mutant cells, cAMP HTRF, 30 min; control for the full effect not named in the record | actives 0.4% (n = 340,000) | Potency, µM (titrated, usually from 76.9 µM), inactives show at the top dose activity change, negative = inhibition, most hits filed as inhibitors; active = falling curve of any shape with a large fitted effect; inconclusive = falling curve, mostly with a smaller effect; inactive = flat or rising curve; cell line not stated here;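 note: intracellular cAMP measured with PDE inhibitor Ro 20-1724 present during compound exposure; potency is the fitted concentration of half-maximal effect; % is set by controls: 0 for no effect and ±100 for the full control effect; nearly all actives have a fitted effect of over 65% in size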
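G418-selected cells were plated in DMEM/10% FBS for 16-24 h at 37C, then treated with compounds plus the PDE inhibitor […] (300 uM solution added) for 30 min at 37C. Intracellular cAMP was measured by HTRF after 30 min lysis at room temperature.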
TRPML1 inh – human mucolipin-1 channel inhibition | AID 624415 | activity change, negative = inhibition, % (test concentration not listed) | TRPML1-inducible cells, Ca2+ dye fluorescence, FDSS; stronger effect = lower value; inhibition of EC80 agonist-evoked calcium signal | Q9GZU1 | actives 0.02% (n = 390,000); in the data active means activity change below about -50%; inconclusive means about -30% to -50%; inactive means above about -30%;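 note: stimulus is agonist 54-4 at its EC80 concentration; % is set by controls: 0 for no effect and ±100 for the full control effect; compound concentration not given in the record; the text of the record puts the active cut at -80%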
Target sequence (Q9GZU1 whole entry, looked up): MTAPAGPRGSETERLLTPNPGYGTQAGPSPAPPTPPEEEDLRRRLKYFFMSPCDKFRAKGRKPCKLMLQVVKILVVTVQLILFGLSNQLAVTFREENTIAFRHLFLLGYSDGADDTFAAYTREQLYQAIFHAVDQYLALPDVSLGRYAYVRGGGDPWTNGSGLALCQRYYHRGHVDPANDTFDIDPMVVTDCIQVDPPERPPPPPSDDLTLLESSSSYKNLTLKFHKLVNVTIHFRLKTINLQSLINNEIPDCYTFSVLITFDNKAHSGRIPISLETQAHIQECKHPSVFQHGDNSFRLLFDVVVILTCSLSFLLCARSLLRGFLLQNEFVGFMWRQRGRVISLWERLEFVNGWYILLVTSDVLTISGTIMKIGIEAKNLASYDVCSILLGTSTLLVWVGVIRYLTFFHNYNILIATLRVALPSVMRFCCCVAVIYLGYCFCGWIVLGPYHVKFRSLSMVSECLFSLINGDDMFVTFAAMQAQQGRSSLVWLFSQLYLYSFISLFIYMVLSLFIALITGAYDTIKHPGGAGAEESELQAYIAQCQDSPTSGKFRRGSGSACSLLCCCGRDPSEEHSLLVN
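TRPML1-DL cells, Tet-induced overnight (~16 h, 37 °C) at 1,500 cells/well, were loaded with Ca8 no-wash dye plus quencher for 45-90 min at room temperature. Compounds were pinned during FDSS kinetic reading; agonist 54-4 at EC80 (4 uM final) then added.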
Menin MLL FP FL – inhibitors of human menin-MLL interaction, wild-type MLL peptide; Fluorescence polarization, fluorescein-MLL peptide displacement from menin; FP activity change, % at 61.4 µM; 290,000 tested, under 10 active; AID 1766; inconclusive = falling polarisation curve, or a change in total fluorescence; inactive = total fluorescence flat and polarisation flat or rising; no compound was filed as active; the % refers to the polarisation; negative = inhibition;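 note: % of control where 0% means no effect; inhibitors lower the polarisation; unlabelled MLL peptide was the positive control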
gsp ag – agonists of gsp mutant (McCune-Albright syndrome); gsp mutant cells, cAMP HTRF, 30 min; control for the full effect not named in the record; Potency, µM (top dose mostly 76.9 µM), for the others: at the highest dose activation (cAMP increase), actives largely listed as activators; actives 0.13% (n = 340,000); AID 624287; active = well fitted activation curve with a large enough effect; inconclusive = small, poorly fitted or top-dose-only effect, or another doubt; inactive = no such curve, though single readings can be large or run the other way; cell line not stated here;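 note: phosphodiesterase inhibitor Ro 20-1724 added with compounds to block cAMP breakdown; potency is the fitted concentration of half-maximal effect; nearly all actives have a fitted effect of over 60% in size; about a fifth of the inactives were tested at one dose only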
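Cells in DMEM/10% FBS with G418 were pretreated with compounds in DMSO plus […] (300 uM stock) for 30 min at 37C. cAMP was measured by HTRF (cAMP-d2 plus anti-cAMP antibody-K) after 30 min at room temperature.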
TRPML1 agonist – activates the human TRPML1 channel | Q9GZU1 | TRPML1-expressing cells, Ca2+ dye fluorescence, FDSS; host cell line not named in the record; reference of the full effect not given here | activation, % (concentration not given with the values) | actives 0.12% (n = 410,000) | AID 624414; in the data active = activation above about 50%; inconclusive = about 30% to 50%; inactive = below about 30%; note: 0% is about no effect; the text of the record puts the active cut at 80%
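Kinetic FDSS Ca2+ read in Tet-induced TRPML1-DL cells (ABD Ca8 dye plus quencher, 45-90 min RT loading): baseline, then compound, then 110 s agonist window; EC80 agonist 54-4 at 4uM final added afterwards for a 110 s antagonist window.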
Starred values were filed as active, the others as inactive; ? = inconclusive; / = not tested or not shown; & = joins results of further samples; [ ] = dose if it differs, or a comment.

Structure,ClpP mod,gsp antag,TRPML1 inh,Menin MLL FP FL,gsp ag,TRPML1 agonist
COc1cc(C[C@@H](C)N)c(OC)cc1I,-1.0%,7%,5,-1.5&0.5,/,-0.3
CC(C)n1c(O)c(C=NCc2ccccc2)c(=O)[nH]c1=S,0.6%,4%,5,0.5,-28%,0.9
COC(=O)C1=C(c2ccccc2OCc2ccccc2)C[C@@H]2CC[C@H]1N2C(=O)NCc1cccc(C(F)(F)F)c1,-1.4%,-8%,12,/,?,0.0
CCC(=O)c1cn(Cc2ccccc2C#N)c2ccccc12,0.5%,-3%,20,4.8,-27%,1.6
O=c1cccc2n1CC1CC2CN(Cc2c(F)cccc2Cl)C1 (configuration not stated),1.8%,-8%,23,-0.4,-29%,-0.8
Cc1ccc(-n2c(/C=C/c3cc(Br)cs3)nc3ccccc3c2=O)cc1C,-3.1%,/,-14,/,/,5.6
Cc1c(N=Cc2c(O)n(Cc3ccccc3)c(=O)[nH]c2=O)c(=O)n(-c2ccccc2)n1C,/,-16%,21,2.1,5%[15.4 µM],1.9
CSc1ccc(C(=O)C2CCCN(Cc3cc4ccccc4[nH]3)C2)cc1 (configuration not stated),/,/,-9,1.6,8%[15.4 µM],1.1
Cc1nn(Cc2ccccc2Cl)c(C)c1C(=O)OCC(=O)NC1CCCC(C)C1C (configuration not stated),1.9%,12%,-8,1.6,-39%[inhibitor],0.3
COC(=O)CC1(CC(=O)OC)C(=O)N(c2ccccc2)C(=O)N(c2ccccc2)C1=O,1.4%,7%,1,6.6,8%[15.4 µM],2.8
CCN1CCN(c2ncnc3ccc(Br)cc23)CC1,0.7%,12%,-1,-4.1,29%,-0.6
Cc1cc(OCc2cc(C(=O)O)oc2C)c2c3c(c(=O)oc2c1)CCCC3,28µM*,?,3,2.4,8%,0.3
CC(C)N=C(NC(C)C)N1CC1,-0.9%,/,-1,/,21%,-0.7
COc1ccc2c(c1OC)C(=O)OC2c1c(O)n(Cc2ccc(F)cc2)c(=O)[nH]c1=O (configuration not stated),-1.2%,-1%,0,8.0,-37%,0.5
O=C1CN(O)C(c2ccccc2)=c2cc(Br)ccc2=N1,/,9%,3,5.0,1%,-0.4
O=C1CC(=O)N(Cc2ccccc2)C(=O)N1Cc1ccccc1,-11%,5%,15,/,-5%,0.1
CCOc1ccc(NC(=O)CCNC(=O)N2C[C@H]3C[C@@H](C2)c2cccc(=O)n2C3)cc1,-5.3%,-1%,/,-1.4,/,/
Cc1cccc(NC(=O)c2cc3c(=O)n4ccccc4nc3n2C)c1C,?,/,31,/,/,0.3
COc1ccccc1-n1c(-c2ccoc2)nc2ccccc2c1=O,-1.8%,16%,18,2.5,-18%,1.3
O=C(c1cnn2c(C(F)(F)F)cc(-c3ccccc3)nc12)N1CCC2(CC1)OCCO2,-5.8%,-10%,-10,-1.2,0%,0.7

2 entries from above, reformatted.
> Cc1cccc(NC(=O)c2cc3c(=O)n4ccccc4nc3n2C)c1C
  ClpP mod = ?	gsp antag = /	TRPML1 inh = 31	Menin MLL FP FL = /	gsp ag = /	TRPML1 agonist = 0.3

> COc1ccccc1-n1c(-c2ccoc2)nc2ccccc2c1=O
  ClpP mod = -1.8%	gsp antag = 16%	TRPML1 inh = 18	Menin MLL FP FL = 2.5	gsp ag = -18%	TRPML1 agonist = 1.3

(cont.)
Structure,ClpP mod,gsp antag,TRPML1 inh,Menin MLL FP FL,gsp ag,TRPML1 agonist
Oc1cccc(/C=N/NP(=S)(c2ccccc2)c2ccccc2)c1,-3.6%,-16%,-17,?,-29%,1.8
CCCCCCN1CCN(c2ccccc2Cl)CC1,-1.2%,3%,1,-0.2,0%,0.8
CCCOC(=O)c1ccc(OC(=O)c2ccco2)cc1,0.0%,-3%,-14,3.6,-47%[inhibitor],1.6
COC(=O)C1=C(c2cccc(OCc3ccccc3)c2)C[C@@H]2CC[C@H]1N2C(=O)NCCN1CCOCC1,1.4%,1%,6,/,-35%[inhibitor],-0.6
Cc1cccc(C)c1OP(N)(=O)Oc1c(C)cccc1C,0.3%,-3%,23,2.9,2%,0.9
OC1(c2ccc(F)cc2)CC2CCC(C1)N2Cc1nnnn1C1CCCCC1 (configuration not stated),0.0%,-19%,-3,5.4,-86%[inhibitor],0.9
O=Cc1c(C(=O)O)n(Cc2ccc(Cl)cc2)c2ccccc12,-1.4%,31%,17,?,21%,16
CCC(=NCCCN(CC)CC)c1c(O)n(C2CCCCC2)c(=O)[nH]c1=O,-3.3%,-1%,8,2.4,19%,-1.0
CC12CCC(=O)C=C1CC(N1CC1)C1C2CCC2(C)C(O)CCC12 (configuration not stated),-3.3%,2%,-3,/,-1%,1.5
CCc1cc2c(N3CCN(C)CC3)ncnc2s1,-0.4%,9%,-1,-1.2,-42%[inhibitor],-0.5
O=C(CSCC(=O)N1CCOCC1)Nc1nc(-c2ccc3c(c2)OCO3)cs1,-2.6%,-13%,11,4.2,?,0.5
COC(=O)C1=C(c2cccc(OC)c2OC)C[C@@H]2CC[C@H]1N2C(=O)NCc1ccccc1,-2.1%,3%,-4,/,-31%[inhibitor],0.2
CN=C(SCc1cc2c(cc1Cl)OCO2)c1c(O)n(C)c(=O)n(C)c1=O,-1.1%,-22%,-8,0.4,-19%,3.5
Cc1ccccc1C(=O)N1Cc2cnnn2-c2ccccc2C1C#N (configuration not stated),0.9%,-3%,7,/,/,3.0
NNCc1ccccc1,0.3%,5%,-3,1.5,/,-0.3
CCN1CCc2ccccc2C1,-0.9%,19%,/,1.3,19%,/
O=c1[nH]c(=S)n(-c2cccc(Cl)c2)c(O)c1C=NCCN1CCNCC1,/,9%,-1,1.3,56%,0.4
O=[N+]([O-])c1ccc(N2CCCCCC2)c2ncccc12,-0.4%,-24%,-4,3.7,?,4.1
CCCCCC1CC(CC#CCN2CCOCC2)C(=O)O1 (configuration not stated),0.6%,2%,-3,1.0,-8%,-0.5
CCn1c(CN2CCN(C)CC2)nc2ccccc21,-0.2%,/,4,/,/,-0.9

One compound at a time, from the list above:
`Cc1cccc(C)c1OP(N)(=O)Oc1c(C)cccc1C` is entered as ClpP mod: 0.3%; gsp antag: -3%; TRPML1 inh: 23; Menin MLL FP FL: 2.9; gsp ag: 2%; TRPML1 agonist: 0.9
`O=Cc1c(C(=O)O)n(Cc2ccc(Cl)cc2)c2ccccc12` is entered as ClpP mod: -1.4%; gsp antag: 31%; TRPML1 inh: 17; Menin MLL FP FL: ?; gsp ag: 21%; TRPML1 agonist: 16

(more compounds)
Structure,ClpP mod,gsp antag,TRPML1 inh,Menin MLL FP FL,gsp ag,TRPML1 agonist
S=P(Nn1cnnc1)(c1ccc(Br)cc1)c1ccc(Br)cc1,/,-3%,2,4.8,-18%[15.4 µM],0.9
CC1(C)CC(=O)C(C=NCCN2CCN(C(=O)Cc3ccccc3)CC2)=C(O)C1,0.5%,4%,-4,-0.6,8%,0.3
O=C(COc1ccc2ccc(=O)oc2c1)N1CCC(C(=O)O)(c2ccccc2)CC1,4.2%,1%,22,-5.0,?,0.2
Cc1nn(Cc2ccccc2)c(C)c1C=C1C(=O)NC(=O)NC1=O,-3.1%,6%,7,1.8,-9%,0.6
CSc1ccc(C(=O)C2CCCN(Cc3cccnc3)C2)cc1 (configuration not stated),/,?,-10,-4.7,0%[15.4 µM],2.3
CCC1Nc2ncnc(N3CCN(c4ccccn4)CC3)c2N(Cc2ccc(Br)cc2)C1=O (configuration not stated),-15%,-9%,53,/,?,-1.0
Cc1ncoc1C(=O)NCC1=C(c2cccc3ccccc23)C[C@@H]2CC[C@H]1N2Cc1ccco1,1.7%,/,3,/,-17%,-0.7
O=[N+]([O-])c1cccc2c([As](=O)(O)O)cccc12,/,6%,4,-5.7,-8%,0.5
CCNC(=O)NC(=O)C(C)OC(=O)c1c(C)nn(Cc2ccccc2Cl)c1Cl (configuration not stated),-1.7%,3%,-8,-2.9,5%[15.4 µM],-0.4
c1ccc(-c2nnc(C3CC(c4cccnc4)=NO3)o2)cc1 (configuration not stated),-12%,6%,-5,-1.9,/,-0.7
COc1ccccc1CNC(=O)C(NS(=O)(=O)c1ccc2c(c1)oc(=O)n2C)C(C)C (configuration not stated),-1.7%,14%,11,1.4,-61%[inhibitor],-0.4
Cc1ccc2c(c1)C1CN(C)CCC1N2C(=O)c1cccs1 (configuration not stated),/,9%,5,-1.1,28%[15.4 µM],-0.3
O=C1CCC2(O)C3Cc4ccc(O)c5c4C2(CCN3Cc2ccoc2)C1O5 (configuration not stated),-0.8%,/,18,/,17%,0.0
CCN(CC)CCN=C(C)c1c(O)n(-c2ccccc2OC)c(=O)[nH]c1=O,-2.1%,8%,38,?,-9%,0.1
COc1ccc(C(=O)N/N=C\c2coc3ccc(C)cc3c2=O)cc1,34%,6%,8,-24,13%,-0.1
Cc1ccc(-n2c(O)c(C=Nc3ccc(Br)cn3)c(=O)[nH]c2=O)cc1,/,0%,-15,17,-1%[15.4 µM],-0.5
NP(=O)(Oc1ccc(Cl)cc1)Oc1ccc(Cl)cc1,/,15%,-6,-1.2,-1%[15.4 µM],1.0
N#Cc1cc2c(nc1SCC(=O)Nc1cc(Cl)cc(Cl)c1)C1CCN2CC1,5.9%,-8%,6,5.6,26%,-0.7
CCN(CC)c1ccc(CN(C)CCc2ccc(OC)c(OC)c2)cc1,-0.4%,-10%,-4,0.2,-17%,0.0
Cc1occc1C(=O)Nc1nnc(C(F)(F)F)s1,-3.0%,?,3,-1.1,5%,-0.2
COC(=O)C1=C(c2ccc(C(C)=O)cc2)C[C@@H]2CC[C@H]1N2C(=O)NC1CC1,0.0%,3%,3,/,23%,-0.7
FC(F)(F)c1ccccc1CN1CCN(Cc2ccccc2)CC1,0.5%,5%,-4,2.5,1%,-0.5
Cc1ccc(N2C(=O)NC(=O)/C(=C/c3ccc(OC(=O)c4cccs4)cc3)C2=O)cc1,3.1%,-9%,8,6.4,23%,0.6
Cc1ccc(Cl)cc1-n1c(O)c(C=NCCCN2CCOCC2)c(=O)[nH]c1=O,0.2%,1%,7,2.0,36%,-0.9

Only part of the results is shown, so the mix of outcomes need not match the whole.
